Assay outcomes as filed in PubChem.
TRPML1 agonist – agonists of human TRPML1 channel; TRPML1-expressing cells, Ca2+ dye fluorescence, FDSS; host cell line not named in the record; reference of the full effect not given here; activation, % (concentration not given with the values); 410,000 tested, 0.12% active; AID 624414; in the data active = activation above about 50%; inconclusive = about 30% to 50%; inactive = below about 30%; also: 0% is about no effect; the text of the record puts the active cut at 80%
Target sequence (Q9GZU1 whole entry, looked up): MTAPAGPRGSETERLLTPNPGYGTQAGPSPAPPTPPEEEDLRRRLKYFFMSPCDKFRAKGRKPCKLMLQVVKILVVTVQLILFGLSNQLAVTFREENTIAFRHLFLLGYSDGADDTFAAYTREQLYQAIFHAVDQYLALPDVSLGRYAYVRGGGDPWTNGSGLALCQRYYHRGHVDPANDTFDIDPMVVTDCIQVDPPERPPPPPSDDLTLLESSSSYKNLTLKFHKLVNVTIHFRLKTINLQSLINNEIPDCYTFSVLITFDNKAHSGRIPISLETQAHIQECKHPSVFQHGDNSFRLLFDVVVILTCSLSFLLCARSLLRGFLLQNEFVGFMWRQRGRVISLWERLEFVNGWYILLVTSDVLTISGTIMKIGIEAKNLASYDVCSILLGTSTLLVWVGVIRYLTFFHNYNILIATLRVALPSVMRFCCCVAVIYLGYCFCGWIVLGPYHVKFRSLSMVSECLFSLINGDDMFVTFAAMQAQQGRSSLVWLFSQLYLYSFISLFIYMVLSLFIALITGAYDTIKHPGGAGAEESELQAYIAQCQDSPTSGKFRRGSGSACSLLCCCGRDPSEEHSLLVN
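Tetracycline-induced TRPML1-DL cells are seeded and incubated overnight before loading with a no-wash Ca2+ dye and quencher. Agonist activity is taken from the 110 s fluorescence read following compound pin-transfer on an FDSS, before EC80 54-4 challenge.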
D2 potentiator – potentiates the human D2 dopamine receptor allosterically; P14416; DiscoveRx D2 beta-arrestin cells, luminescence, 90 min; 100% = 57 uM dopamine signal; potentiation, % (test concentration not listed); 360,000 tested, 0.23% active; active = potentiation of 50% or more; inconclusive = 30% to 50%; inactive = 30% or less;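 also: compound concentration not given in the record; tested on top of an EC20 dose of dopamine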
Target sequence (P14416 whole entry, looked up): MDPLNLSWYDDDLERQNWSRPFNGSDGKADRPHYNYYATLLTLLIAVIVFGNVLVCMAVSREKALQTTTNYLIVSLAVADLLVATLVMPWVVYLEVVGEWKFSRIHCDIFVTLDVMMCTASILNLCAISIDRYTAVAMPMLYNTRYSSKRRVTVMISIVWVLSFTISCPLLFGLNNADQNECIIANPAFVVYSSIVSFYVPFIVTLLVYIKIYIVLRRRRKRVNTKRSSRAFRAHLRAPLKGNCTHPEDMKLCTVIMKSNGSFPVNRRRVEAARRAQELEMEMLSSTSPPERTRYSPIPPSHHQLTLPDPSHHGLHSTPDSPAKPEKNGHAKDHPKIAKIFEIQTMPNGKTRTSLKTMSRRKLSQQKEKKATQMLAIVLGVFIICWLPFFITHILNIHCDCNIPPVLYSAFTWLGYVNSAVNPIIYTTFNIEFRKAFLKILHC
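PathHunter D2 cells, attached overnight at 37 deg C, received compound in DMSO plus dopamine at EC20 (50 nM final) for 90 min at 37 deg C. Beta-arrestin recruitment was read as luminescence after 1 h with detection reagent at ambient temperature.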
D2 agonist – human D2 receptor agonism in beta-arrestin assay. 360,000 tested, 0.084% active. P14416. activation, % (test concentration not listed). DiscoveRx PathHunter D2 beta-arrestin, luminescence, 90 min; 100% = 57 uM dopamine signal. AID 624465; in the data active = activation above about 40%; inconclusive = about 15% to 40%; inactive = below about 15%; also: compound concentration not given in the record; the text of the record calls up to 30% inactive
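Agonist mode: compounds alone added to overnight-plated D2 PathHunter cells for 90 min at 37 C, with 57 uM final dopamine (EC100) defining full response. Beta-arrestin recruitment detected by chemiluminescent reagent, read after 1 h at ambient temperature.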
TRPML1 inh – human mucolipin-1 channel inhibition; 390,000 tested, 0.02% active; Q9GZU1; activity change, negative = inhibition, % (concentration not given with the values); TRPML1-inducible cells, Ca2+ dye fluorescence, FDSS; stronger effect = lower value; inhibition of EC80 agonist-evoked calcium signal; in the data active means activity change below about -50%; inconclusive means about -30% to -50%; inactive means above about -30%;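 also: stimulus is agonist 54-4 at its EC80 concentration; % is scaled to controls: 0 for no effect and ±100 for the full control effect; compound concentration not given in the record; the text of the record puts the active cut at -80%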
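Tet-induced TRPML1-DL cells loaded with Ca8 no-wash calcium dye were read kinetically on FDSS. Compound addition was followed by EC80 agonist 54-4 (4 uM final); inhibition was read over 110 s.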
Six1-Eya2 blk – inhibitors of human Six1/Eya2 interaction. AlphaScreen GST-Six1/His-Eya2 binding, biochemical; stronger effect = lower value; control for the full effect not named in the record. activity change, % (test concentration not listed). AID 651725. Q15475+O00167. 360,000 tested, 0.56% active; in the data active = activity change below about -65%; inconclusive = about -30% to -65%; inactive = above about -30%; also: % is scaled to controls: 0 for no effect and ±100 for the full control effect; compound concentration not given in the record
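Six1/Eya2 binding was read as AlphaScreen signal after compounds were pinned into GST-Six1 plus His-tagged Eya2 (5X stock 250/500 nM) in pH 8.0 Tris/NaCl/TCEP buffer, beads added, then incubated 1 h, 37 C, dark.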
PINK1 expr mod – changes PINK1 expression; 410,000 tested, 0.2% active; PINK1 immunofluorescence, high-content cytometry, 24 h; Potency, µM (series often up to 76.6 µM), for inactives: at the highest dose activation (PINK1 increase), usual class: activators; AID 624263; active = well fitted activation curve with a large enough effect; inconclusive = small, poorly fitted or top-dose-only effect; inactive = flat fitted curve, though single readings scatter; cell line not stated here;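 also: potency is read from the fitted curve at half-maximal effect; % of control where 0% means no effect; nearly all actives have a fitted effect of over 65% in size; a mitochondrial uncoupler was the plate control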
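Decision-based qHTS: stable cells, 24 h exposure to five compound concentrations, CCCP as control. Fixed cells stained for PINK1 plus nuclear, mitochondrial and cell markers, cytometer read.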
* = called active by the depositor; ? = inconclusive; . = no result given; & = joins results of further samples; [ ] = another dose, or the depositor's remark.

Results follow in this order: TRPML1 agonist | D2 potentiator | D2 agonist | TRPML1 inh | Six1-Eya2 blk | PINK1 expr mod
Cc1ccc(F)cc1C(=O)N1CCOCC1c1cc(C(=O)NCc2ccccc2)no1 (stereo unspecified)
    -0.7 | -6 | -3.3 | . | 6 | 1.4%
O=C(c1cccc(Br)c1)N1CCN(S(=O)(=O)N2CCCCC2)CC1
    0.1 | -8 | 1.9 | -1 | -3 | 1.0%
Cc1cccc(C)c1NC(=O)CN1CCN(CC(=O)c2cc(C)n(C3CC3)c2C)CC1
    -1.0 | -13 | -2.7 | 26 | 0 | 0.2%
CCNC(=S)Nc1cc2oc3ccccc3c2cc1OC
    -0.4 | -15 | -5.5 | -3 | -13 | 1.4%
COc1ccccc1COC(=O)C(NC(=O)c1ccc(C)cc1)C(C)C (stereo unspecified)
    2.2 | -68 | -5.4 | -7 | 3 | 0.6%
CCCSc1nc2sc3c(c2c(=O)[nH]1)CC(C)CC3 (stereo unspecified)
    1.4 | 6 | 9.3 | -17 | -5 | 0.5%
COc1ccccc1NC(=O)c1sc2ncn(CC(=O)Nc3ccccc3)c(=O)c2c1C
    0.0 | -8 | -2.9 | 2 | 0 | -0.7%
Cc1ccc(NC(=O)COc2ncnc3ccccc23)cc1S(=O)(=O)N1CCOCC1
    -1.1 | -8 | -3.3 | -8 | -1 | 5.1%
Cc1nn(CC(=O)NCc2ccc(N(C)C)cc2)c(=O)c2c(C)n(-c3ccc(Cl)cc3)nc12
    2.0 | . | . | -3 | . | -0.1%
CCCCCn1nnnc1-c1nc2cc3ccccc3cc2[nH]c1=O
    2.2 | . | . | . | ? | 1.9%
Cc1ccccc1CN(C)C(C)C(=O)NCc1ccccc1 (stereo unspecified)
    -0.6 | -7 | 0.2 | ? | -3 | 3.6%
Cc1cc(C(F)(F)F)n2ncc(-c3ccc(F)cc3)c2n1
    -0.2 | -4 | -2.3 | -5 | 1 | -0.5%
COCC(=O)N1CCCN(c2nc3c(C)cccc3cc2C#N)CC1
    -0.3 | -2 | -2.3 | -15 | 4 | 0.4%
CC(=O)c1ccc(NC(=O)c2ncn(-c3ccccc3)n2)cc1
    0.7 | . | . | 2 | . | 1.4%
COC(=O)c1cccc(S(=O)(=O)N2CCOCC2)c1
    -0.8&-0.4 | -5 | -5.1 | -7 | 0 | -0.6%&-1.0%
CC1CCCCN1C(=O)Cn1c(=O)oc2cc(S(=O)(=O)N3CCCCC3)ccc21 (stereo unspecified)
    -0.3 | -12 | -4.9 | 14 | -9 | -0.8%
CCCCOc1ccc(C(=O)Nc2ccc(N3CCN(C(=O)C(C)C)CC3)cc2)cc1
    0.4 | 4 | 0.1 | 4 | -3 | 1.7%
CCc1ccc(NC(=O)Cn2ccn(-c3cccc(Cl)c3)c(=O)c2=O)cc1
    0.4&0.3 | -6 | 1.4 | 0&31 | -1 | 11%&4.3%
CC(=O)Nc1ccc(NC(=O)CSc2ncc(C(=O)Nc3ccccc3)c(=O)n2C)cc1
    -0.1 | -2 | -5.6 | -5 | -6 | 2.5%
CC1(C)CC2CC(C)(CN2C(=O)COC(=O)c2cncc(Br)c2)C1 (stereo unspecified)
    -0.8 | -3 | 9.0 | 5 | 2 | -0.2%

Complete entries as entered above. Order of values: TRPML1 agonist	D2 potentiator	D2 agonist	TRPML1 inh	Six1-Eya2 blk	PINK1 expr mod
`CCCCOc1ccc(C(=O)Nc2ccc(N3CCN(C(=O)C(C)C)CC3)cc2)cc1` in the list: 0.4	4	0.1	4	-3	1.7%
`COCC(=O)N1CCCN(c2nc3c(C)cccc3cc2C#N)CC1` in the list: -0.3	-2	-2.3	-15	4	0.4%
`Cc1ccccc1CN(C)C(C)C(=O)NCc1ccccc1` (stereo unspecified) in the list: -0.6	-7	0.2	?	-3	3.6%
`CC(=O)c1ccc(NC(=O)c2ncn(-c3ccccc3)n2)cc1` in the list: 0.7	.	.	2	.	1.4%

(listing goes on)
Results follow in this order: TRPML1 agonist | D2 potentiator | D2 agonist | TRPML1 inh | Six1-Eya2 blk | PINK1 expr mod
NC(=O)/C(=C/c1cccnc1)NC(=O)c1ccccc1
    0.6 | -5 | -2.9 | 0 | 0 | -0.2%
O=C(NCc1ccc2c(c1)CCN2C(=O)c1ccncc1)c1ccccc1Cl
    -0.5 | . | . | 4 | . | 0.4%
COc1cc2[nH]cc(C(=O)NCc3cccs3)c(=O)c2cc1OC
    0.0 | -3 | 1.7 | -17 | ? | ?
O=C(CSc1ccc(F)cc1)NCC1(N2CCOCC2)CCCCC1
    -1.3 | -16 | -1.9 | 0 | 7 | -0.6%
Cc1ccc(C(=O)NCC(=O)NNC(=O)CN(C)S(=O)(=O)c2ccc(Cl)cc2)s1
    -0.4 | -3 | -0.7 | -5 | -3 | 3.6%
O=C(Nc1ccccc1)c1ccccc1O
    0.3 | -4 | -3.2 | 20 | 7 | -0.2%[38.3 µM]
CC(=O)Nc1ccc(C2CC(c3ccc(Cl)cc3)=NN2c2ccccc2)cc1 (stereo unspecified)
    . | 3 | -4.3 | . | 38 | 3.9%
COc1ccc2nc(NC(=O)c3cc(S(=O)(=O)N4CCOCC4)ccc3C)sc2c1
    0.5 | 9 | 2.2 | -8 | -5 | -2.6%
C[C@@H](NC(=O)[C@@H]1CCCN1C(=O)[C@@H]1CCCN1C(=O)c1cccc2ccccc12)c1ccccc1
    -0.5 | . | . | . | 10 | 0.4%
CC(C)CNS(=O)(=O)c1ccc(OCC(=O)NCc2ccco2)cc1
    -0.3 | -2 | -4.5 | -10 | -2 | 1.3%
CC(C)(C)[C@@H]1COC(=O)[C@H](Cc2ccc(F)cc2)C/C=C\C[C@H](CC(=O)N(CCO)Cc2ccccc2)C(=O)N1
    -0.6 | 3 | 3.5 | -1 | -5 | 0.6%
CC(=O)c1ccc(NC(=O)c2cc(-c3ccc(C)s3)nc3ccccc23)cc1
    0.8 | . | . | 1 | . | 2.7%
CC(C)CC(=O)Nc1ncnc2c1C(=O)CC(C)(C)C2
    -0.1 | -20 | -3.6 | -7 | 3 | 1.5%
COc1ccc(NC(=O)C2CC3C=CC2C3)c([N+](=O)[O-])c1 (stereo unspecified)
    3.3 | -6 | 1.0 | -3 | -7 | -1.8%
COc1ccc(NC(=S)NCc2cccs2)cc1
    0.7 | -5 | 10.0 | -11 | -1 | 1.3%
CC(C)(C)CC(C)(C)NC(=S)Nc1ccc2nc(-c3ccccn3)c(-c3ccccn3)nc2c1
    1.5 | -2 | -2.4 | -8 | -12 | 1.1%[38.3 µM]
[N-]=[N+]=NC(c1ccccc1)c1nc2ccccc2[nH]c1=O (stereo unspecified)
    4.2 | 4 | 1.2 | -1 | -13 | -0.1%
Cc1ccc(NC(=O)CCSc2nc(-c3ccc4c(c3)OCO4)cc(C(F)(F)F)n2)c(C)c1
    1.5 | . | . | -2 | . | -0.8%
CN1C(=O)C(CC(=O)O)S/C1=N\N=C\c1ccc(O)cc1O (stereo unspecified)
    0.7 | -10 | -2.8 | -6 | -6 | -1.1%
CCCCC1=CC2=CC(=O)C(C)(OC(=O)CC)C(=O)C2=CN1c1ccc(OC)cc1 (stereo unspecified)
    0.1 | 2 | -1.1 | -1 | -17 | 1.8%
Cc1ccc(CNC(=O)CCCCCn2c(=O)c3sccc3n(CC(=O)Nc3ccc(C)c(F)c3)c2=O)cc1
    1.9 | . | . | -20 | . | 3.4%
CN(C(=O)c1ccc(Cl)cc1)c1ccc(OCC(=O)Nc2cc(C(=O)O)ccc2Cl)cc1
    1.8 | 3 | 5.9 | 20 | 5 | 0.5%
Cc1ccc(CSCc2ccc(C(=O)NCCC(C)C)o2)cc1
    4.3 | -15 | 2.9 | 10 | 2 | 4.7%
C=CCn1cc(C(=O)N2CCN(C)CC2)c(=O)c2cc(S(=O)(=O)N3CCCC3)ccc21
    -0.1 | -2 | 4.6 | 9 | -28 | 0.3%
COC(=O)c1cc(OC)c(OC)cc1NC(=O)c1cccc(C)c1
    1.1 | -1 | 0.2 | 8 | 1 | 7.3%
CCOc1ccc(OCCOC(=O)CN2C(=O)NC3(CCCC3)C2=O)cc1
    -0.6 | -15 | -2.1 | 5 | 9 | 0.0%
S=c1[nH]nc(-c2ccccn2)n1/N=C/c1ccc(Br)s1
    78* | -18 | -2.0 | -30 | -77* | -1.3%
COc1ccc(C2C(C(=O)c3sc(C)nc3C)=C(O)C(=O)N2CCN(C)C)cc1OC (stereo unspecified)
    0.4 | -21 | 1.0 | -11 | -12 | 0.6%
CN(c1cccc(NC(=O)c2ccccc2N(C)S(=O)(=O)c2ccccc2)c1)S(C)(=O)=O
    1.2 | 28 | 1.2 | -13 | 3 | 0.7%
O=[N+]([O-])c1ccccc1S(=O)(=O)Nc1ccn(Cc2c(F)cccc2Cl)n1
    -0.2 | -2 | 7.3 | -5 | -11 | -0.3%
O=C(NC1CC1)C1CC(=O)N(c2cccc(Cl)c2Cl)C1 (stereo unspecified)
    -0.5 | -4 | 2.6 | 4 | 7 | -1.3%
Cc1onc(-c2ccccc2)c1NC(=O)N(CCC#N)Cc1ccccc1
    -0.4 | -4 | -3.3 | -12 | 2 | -0.7%
C=CC#CC[N+]1(CC#Cc2ccccc2)CCOCC1
    -0.1 | -21 | -3.0 | -5 | 23 | -0.8%
COc1cc(NC(=O)CSc2nc(-c3ccccc3)no2)cc(OC)c1
    -0.7 | . | . | 2 | . | 4.1%
Oc1ccc(Cl)cc1CNCc1cccc2ccccc12
    0.3 | -26 | 0.0 | 3 | 0 | 9.8%
OC(CNCCN1CCNCC1)Cc1ccccc1 (stereo unspecified)
    0.2 | -22 | -2.0 | 18 | -4 | -1.4%
Cc1nc(NC(=O)c2cccnc2Cl)sc1C
    0.0 | -18 | -3.2 | -4 | 2 | 2.2%
CCOC(=O)c1cc2sccc2n1CC(=O)OC
    -1.2 | -5 | -3.2 | -12 | -3 | 2.2%
COc1ccc(Cn2c(=O)[nH]c3cc(C(=O)N4CCN(c5ccccn5)CC4)ccc3c2=O)cc1
    0.2 | 4 | 1.0 | 1 | 0 | 1.2%
Cc1cc(Nc2nc3ccccc3c3nnc(C)n23)ccc1Br
    1.1 | . | . | 40 | . | 0.0%
CCSC1=NSC2=NC(=O)/C(=C\c3coc4ccccc4c3=O)C(=N)N12
    77* | ? | -1.0 | -1 | -20 | 21%
CN(c1ccccc1C(=O)N1CCN(c2ccccc2)CC1)S(C)(=O)=O
    0.3 | -9 | -0.1 | 45 | 6 | -0.7%
COC(=O)[C@H](CCSC)NC(=O)Cn1cnc2c(OCc3ccccc3)ncnc21
    2.0 | -2 | -1.3 | -5 | -4 | 1.9%
COc1ccc(CN(C(C)=O)c2cccc(C)c2C)cc1
    0.2 | -24 | -3.0 | -14 | 10 | 5.2%
